# From PubChem BioAssay
# Vaccinia stage: Vaccinia orthopox stage-specific inhibition; Vaccinia-infected cells, mCherry/Venus stage reporter fluorescence; active compounds read low; some inactives read as strong as hits; activity change (mCherry), % (concentration not given with the values); hit rate 0.01% among 89,000;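 active = mCherry past -33% and 40 or more points under the early reporter, replicates agreeing; inconclusive = past -33% without that gap or agreement; tested in A549 cells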;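 note: scaled between vehicle wells and reference inhibitor wells; 23 nL library stock went into each well; one replicate is shown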
# Vaccinia stage Venus: recorded beside Vaccinia stage, whose call it bears; activity change (Venus), %; measured here: Venus reporter, other viral stage;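 negative = less Venus signal; first of two replicates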
# * marks the source's active call; other numbers are inactive results; ? = inconclusive; nt = not tested or not shown; & = joins results of further samples.
# Preview:
SMILES,Vaccinia stage,Vaccinia stage Venus
CCCNC(=O)Nc1ccc2c(c1)C(=O)N(C)C[C@@H](OC)[C@@H](C)CN(C)[C@@H](C)CO2,10,4
Cc1noc(C)c1S(=O)(=O)N(C)C[C@H]1OCCCC[C@@H](C)Oc2ccc(NS(C)(=O)=O)cc2C(=O)N([C@@H](C)CO)C[C@H]1C,-10,-12
C[C@@H]1CCCCO[C@@H](CN(C)C)[C@@H](C)CN([C@@H](C)CO)C(=O)c2cc(NS(=O)(=O)c3ccc(Cl)cc3)ccc2O1,-9,-3
CCC(=O)N[C@@H]1C=C[C@H](CC(=O)OC)O[C@@H]1CO,7,11
CO[C@@H]1CN(C)C(=O)c2ccc(NC(=O)c3cc(C)on3)cc2OC[C@@H](C)N(S(=O)(=O)c2cccc(F)c2)C[C@H]1C,-15,-14
O=C(C[C@H]1CC[C@H]2[C@@H](COC[C@H](O)CN2C(=O)c2ccncc2)O1)NCc1ccc(-c2ccccc2)cc1,8,8
C[C@@H]1CN([C@H](C)CO)C(=O)c2cc(NS(=O)(=O)c3cccs3)ccc2O[C@@H](C)CCCCO[C@H]1CN(C)Cc1ccc(C(=O)O)cc1,7,-2
O=C(C[C@@H]1CC[C@@H]2[C@H](COC[C@H](O)CN2C(=O)Nc2ccc(C(F)(F)F)cc2)O1)NCC1CCCCC1,-35,-19
C[C@@H]1CN([C@@H](C)CO)C(=O)c2cc(NC(=O)CCCN(C)C)ccc2O[C@H]1CN(C)C(=O)NC1CCCCC1,-6,-2
C[C@H](CO)N1C[C@H](C)[C@H](CN(C)C(=O)CN(C)C)Oc2cc(C#Cc3cccnc3)ccc2S1(=O)=O,9,-3

# The list itself (from the top)
SMILES,Vaccinia stage,Vaccinia stage Venus
CCCNC(=O)Nc1ccc2c(c1)C(=O)N(C)C[C@@H](OC)[C@@H](C)CN(C)[C@@H](C)CO2,10,4
Cc1noc(C)c1S(=O)(=O)N(C)C[C@H]1OCCCC[C@@H](C)Oc2ccc(NS(C)(=O)=O)cc2C(=O)N([C@@H](C)CO)C[C@H]1C,-10,-12
C[C@@H]1CCCCO[C@@H](CN(C)C)[C@@H](C)CN([C@@H](C)CO)C(=O)c2cc(NS(=O)(=O)c3ccc(Cl)cc3)ccc2O1,-9,-3
CCC(=O)N[C@@H]1C=C[C@H](CC(=O)OC)O[C@@H]1CO,7,11
CO[C@@H]1CN(C)C(=O)c2ccc(NC(=O)c3cc(C)on3)cc2OC[C@@H](C)N(S(=O)(=O)c2cccc(F)c2)C[C@H]1C,-15,-14
O=C(C[C@H]1CC[C@H]2[C@@H](COC[C@H](O)CN2C(=O)c2ccncc2)O1)NCc1ccc(-c2ccccc2)cc1,8,8
C[C@@H]1CN([C@H](C)CO)C(=O)c2cc(NS(=O)(=O)c3cccs3)ccc2O[C@@H](C)CCCCO[C@H]1CN(C)Cc1ccc(C(=O)O)cc1,7,-2
O=C(C[C@@H]1CC[C@@H]2[C@H](COC[C@H](O)CN2C(=O)Nc2ccc(C(F)(F)F)cc2)O1)NCC1CCCCC1,-35,-19
C[C@@H]1CN([C@@H](C)CO)C(=O)c2cc(NC(=O)CCCN(C)C)ccc2O[C@H]1CN(C)C(=O)NC1CCCCC1,-6,-2
C[C@H](CO)N1C[C@H](C)[C@H](CN(C)C(=O)CN(C)C)Oc2cc(C#Cc3cccnc3)ccc2S1(=O)=O,9,-3
O=C(C1CCCC1)N1C[C@@H]2N[C@H](C1)C2c1ccc(-c2ccccc2F)cc1 (stereo not given in full),7,10
COc1ccc(S(=O)(=O)N(C)C[C@H]2Oc3ccc(NC(=O)Nc4ccccc4)cc3CC(=O)N([C@H](C)CO)C[C@H]2C)cc1,-35,-30
Cc1ccc(-c2cnc3c(c2)C(=O)N([C@H](C)CO)C[C@H](C)[C@@H](CN(C)Cc2ccccc2F)O3)cc1,?,-16
C[C@@H]1CCCCO[C@H](CN(C)C(=O)Cc2ccccc2)[C@@H](C)CN([C@@H](C)CO)C(=O)c2cc(NC(=O)c3ccncc3)ccc2O1,23,13
Cc1noc(C)c1NC(=O)Nc1ccc2c(c1)C(=O)N([C@H](C)CO)C[C@H](C)[C@@H](CN(C)C(=O)Cc1ccccc1)OCCCC[C@@H](C)O2,35,14
C[C@@H]1CN([C@H](C)CO)C(=O)c2ccccc2-c2ccccc2CO[C@H]1CN(C)C(=O)[C@H](Cc1ccccc1)N(C)C,12,-2
O=C(C[C@@H]1C=C[C@@H](NC(=O)CCN2CCCCC2)[C@H](CO)O1)Nc1nccs1,3,11
CC(=O)N(C)C[C@@H]1Oc2cc(-c3ccncc3)ccc2S(=O)(=O)N([C@@H](C)CO)C[C@H]1C,28,15
O=C(C[C@H]1C[C@@H]2c3cc(NC(=O)NC4CCCCC4)ccc3O[C@@H]2[C@H](CO)O1)NCc1ccncc1,0,2
Cc1ccc(S(=O)(=O)N(C)C[C@H]2Oc3cc(-c4cccc(F)c4)ccc3S(=O)(=O)N([C@H](C)CO)C[C@@H]2C)cc1,?,nt
Cc1ccc(S(=O)(=O)Nc2ccc3c(c2)CC(=O)N([C@H](C)CO)C[C@H](C)[C@H](CN(C)C(=O)Nc2c(C)noc2C)O3)cc1,16,19
O=C(C[C@@H]1C=C[C@H](NS(=O)(=O)c2ccccc2)[C@H](CO)O1)N1CCc2ccccc2C1,0,-8
C[C@@H]1CN([C@H](C)CO)C(=O)c2cccc(NC(=O)c3cnccn3)c2O[C@H]1CN(C)C(=O)NC1CCCCC1,-4,0
C[C@@H]1CN([C@@H](C)CO)C(=O)Cc2cc(N(C)C)ccc2O[C@@H]1CN(C)C(=O)NC1CCCCC1,-3,-3
C[C@H]1CN([C@@H](C)CO)C(=O)c2cccc(NC(=O)CCCCCC(=O)Nc3ccccc3N)c2O[C@@H]1CN(C)S(=O)(=O)c1cn(C)cn1,17,2
C[C@@H]1CCCCO[C@H](CN(C)Cc2ccc(C(F)(F)F)cc2)[C@@H](C)CN([C@@H](C)CO)C(=O)c2cc(NC(=O)CCCN(C)C)ccc2O1,?,nt
C[C@@H]1CCCCO[C@@H](CN(C)Cc2ccc(C(=O)Nc3ccccc3N)cc2)[C@@H](C)CN([C@H](C)CO)C(=O)c2cc(NS(=O)(=O)c3cn(C)cn3)ccc2O1,60,22
COCC(=O)Nc1ccc2c(c1)OC[C@H](C)N(Cc1cccc(F)c1)C[C@H](C)[C@@H](OC)CN(C)C2=O,-9,-6
CO[C@H]1CN(C)C(=O)c2ccc(NC(=O)NC(C)C)cc2OC[C@@H](C)N(CCC(F)(F)F)C[C@H]1C,8,7
CCCN(C)C[C@@H]1Oc2ncc(-c3cccnc3)cc2C(=O)N([C@@H](C)CO)C[C@@H]1C,25,6
CCCC(=O)N1CC2(CN(C(=O)C3CCC3)C2)c2c(n(C)c3cc(OC)ccc23)[C@H]1CO,18,7
COc1cccc(C#Cc2ccc([C@@H]3[C@H](CO)N4C(=O)CN(C(=O)c5ccccc5)C[C@@H]34)cc2)c1,?,nt
C[C@@H]1CN([C@@H](C)CO)C(=O)Cc2cc(NS(C)(=O)=O)ccc2O[C@@H]1CN(C)S(=O)(=O)c1ccccc1,23,21
COc1ccc2c3c([nH]c2c1)[C@H](CO)N(C(=O)c1ccncc1)CC31CCN(C(=O)NC(C)C)CC1,13,0
CO[C@@H](CN(C)Cc1ccc2c(c1)OCO2)[C@@H](C)CN(C(=O)c1ccccc1)[C@@H](C)CO,13,3
COCCNC(=O)C[C@@H]1CC[C@@H]2[C@H](COc3ccc(NC(=O)Cc4ccccc4)cc3C(=O)N2C)O1,-3,11
O=C(c1cccnc1)N1C[C@H]2[C@@H](c3ccccc31)[C@@H](CO)N2C(=O)C1CCCCC1,3,-2
CCC(=O)N1CC[C@@H]2[C@H]1c1cc(C#Cc3cccnc3)ccc1N[C@@H]2CO,27,13
O=C(C[C@@H]1CC[C@H]2[C@@H](COC[C@H](O)CN2S(=O)(=O)c2cccc(Cl)c2)O1)Nc1ccc(-c2ccccc2)cc1,?,nt
C[C@H]1CN([C@@H](C)CO)S(=O)(=O)c2ccc(C#Cc3ccccc3F)cc2O[C@H]1CN(C)C(=O)Cc1ccncc1,?,nt
CO[C@H]1CN(C)C(=O)c2cc(NC(C)=O)ccc2OC[C@@H](C)N(C(=O)c2ccccc2F)C[C@H]1C,4,1
COc1ccc2c3c([nH]c2c1)[C@@H](CO)N(C(C)=O)CC31CN(S(=O)(=O)c2cccs2)C1,-16,-20
C[C@H]1CN([C@@H](C)CO)S(=O)(=O)c2ccc(C#CC3CCCCC3)cc2O[C@H]1CN(C)C(=O)Cc1ccncc1,?,nt
COc1ccccc1-c1ccc2c(c1)[C@@H]1[C@@H](CCN1S(=O)(=O)c1ccccc1F)[C@H](CO)N2,-8,-5
Cc1ccc(S(=O)(=O)N2C[C@@H](O)COC[C@H]3O[C@H](CC(=O)NCc4ccc(Cl)c(Cl)c4)CC[C@@H]32)cc1,?,nt
O=C(c1cccc(F)c1)N1C[C@H]2[C@@H](c3ccccc31)[C@@H](CO)N2C(=O)C1CCCCC1,12,5
COc1ccccc1C(=O)Nc1ccc2c(c1)OC[C@@H](C)NC[C@H](C)[C@H](OC)CN(C)C2=O,-10,-2
Cc1ccc(S(=O)(=O)N(C)C[C@@H]2Oc3ccc(NS(=O)(=O)c4cccs4)cc3C(=O)N([C@@H](C)CO)C[C@H]2C)cc1,2,4
CCCC#Cc1ccc([C@@H]2[C@@H](CO)N3CCCCN(CC4CCOCC4)C[C@H]23)cc1,-1,3
C[C@H]1CN([C@@H](C)CO)C(=O)c2cc(C3=CCCC3)cnc2O[C@H]1CN(C)C(=O)c1ccccc1,-3,-2
C[C@H]1CN([C@@H](C)CO)S(=O)(=O)c2ccc(C#Cc3ccccc3)cc2O[C@@H]1CN(C)C(=O)CN(C)C,?,nt
CNC[C@@H]1Oc2ccc(NC(=O)Cc3ccccc3)cc2CC(=O)N([C@H](C)CO)C[C@@H]1C,2,3
C[C@H]1CN([C@@H](C)CO)C(=O)Cc2cc(NC(=O)NC3CCCCC3)ccc2O[C@@H]1CN(C)S(C)(=O)=O,15,11
CNC[C@H]1Oc2ccc(NS(=O)(=O)c3ccccc3)cc2C(=O)N([C@@H](C)CO)C[C@H]1C,15,2
O=C(C[C@@H]1CC[C@H]2[C@@H](COC[C@H](O)CN2Cc2ccncc2)O1)NCc1ccccc1Cl,21,12
C[C@@H]1CN([C@@H](C)CO)C(=O)c2cccc(NC(=O)Nc3ccccc3)c2O[C@H]1CN(C)C(=O)NC1CCCCC1,-18,-16
Cc1ccccc1S(=O)(=O)NCC[C@H]1CC[C@H](NC(=O)C2CC2)[C@@H](CO)O1,10,17
CC(C)NC(=O)N(C)C[C@@H]1Oc2ccc(NC(=O)Nc3ccc4c(c3)OCO4)cc2CC(=O)N([C@H](C)CO)C[C@@H]1C,14,2
COc1ccc(S(=O)(=O)NC[C@H]2CC[C@H]3[C@H](CN3Cc3cc(F)ccc3F)O2)cc1,7,10
O=C(C[C@@H]1CC[C@@H]2[C@H](COC[C@@H](O)CN2C(=O)c2ccc3c(c2)OCO3)O1)NC1CCC1,11,16
# Next part.
SMILES,Vaccinia stage,Vaccinia stage Venus
CNC[C@@H]1Oc2cc(-c3cncnc3)ccc2S(=O)(=O)N([C@@H](C)CO)C[C@H]1C,4,7
C[C@H](CO)N1C[C@H](C)[C@@H](CN(C)C(=O)NC2CCCCC2)Oc2ncc(-c3ccccc3F)cc2C1=O,5,4
O=C(C1CC1)N1CC(=O)N2[C@H](CO)[C@H](c3ccc(-c4cccnc4)cc3)[C@@H]2C1,-1,1
CCCC#Cc1ccc2c(c1)O[C@@H](CN(C)C(=O)CC)[C@@H](C)CN([C@H](C)CO)S2(=O)=O,-7,-4
CCC(=O)N(C)C[C@@H]1Oc2cc(C#Cc3ccccc3)ccc2S(=O)(=O)N([C@@H](C)CO)C[C@@H]1C,?,nt
O=C(NC1CCC1)[C@H]1[C@H](CO)[C@H]2Cn3c(ccc(/C=C/c4ccccc4)c3=O)[C@H]2N1Cc1cncnc1,-4,2
COc1cccc(-c2ccc(C3[C@H]4CNC[C@@H]3N4S(=O)(=O)c3cn(C)cn3)cc2)c1 (stereo not given in full),15&11,13&9
O=C(C[C@@H]1CC[C@@H](NC(=O)C2CCOCC2)[C@H](CO)O1)NCc1ccccc1Cl,-5,-5
O=C(C[C@H]1C[C@H]2c3cc(NC(=O)Cc4ccncc4)ccc3O[C@H]2[C@@H](CO)O1)NCc1cc(F)ccc1F,-3,-2
Cc1ccc(S(=O)(=O)N(C)C[C@@H]2OCCCC[C@@H](C)Oc3ccc(NS(=O)(=O)c4ccc(F)cc4)cc3C(=O)N([C@H](C)CO)C[C@@H]2C)cc1,11,1
CCNC(=O)[C@H]1[C@H](CO)[C@H]2Cn3c(ccc(C4=CCCCC4)c3=O)[C@H]2N1Cc1ccc2c(c1)OCO2,-17,-15
Cc1noc(C)c1NC(=O)N(C)C[C@H]1Oc2ccc(NS(=O)(=O)c3ccc(F)cc3)cc2C(=O)N([C@@H](C)CO)C[C@H]1C,16,10
C[C@@H]1CCCCO[C@H](CN(C)C(=O)c2ccccc2)[C@H](C)CN([C@H](C)CO)C(=O)c2cc(NS(=O)(=O)c3ccc(Cl)cc3)ccc2O1,?,nt
CO[C@@H]1CN(C)C(=O)c2cc(NC(=O)Cc3ccccc3)ccc2OC[C@H](C)N(C)C[C@H]1C,2,3
CC(C)C(=O)Nc1ccc2c(c1)C(=O)N(C)[C@H]1CC[C@H](CC(=O)Nc3cccc(F)c3)O[C@@H]1CO2,-11,-5
C[C@@H]1CN([C@H](C)CO)S(=O)(=O)c2ccc(Br)cc2O[C@H]1CN(C)S(C)(=O)=O,11&10,5&3
C[C@H]1CN([C@@H](C)CO)C(=O)c2cc(NC(=O)C3CC3)ccc2O[C@@H]1CN(C)Cc1ccc(C(=O)O)cc1,4,-2
CCCC#Cc1ccc([C@H]2[C@@H](CO)N(C(=O)NC(C)C)[C@@H]2CNC(C)=O)cc1,-3,-3
C[C@@H]1CN([C@@H](C)CO)S(=O)(=O)c2ccc(-c3ccc(C(=O)N(C)C)cc3)cc2O[C@H]1CN(C)C(=O)Cc1ccccn1,8,6

# A portion of the library; the hit share may differ from the screen's.
